Screening results deposited in PubChem BioAssay by ICCB-Longwood Screening Facility, Harvard Medical School.
AID504770 – growth inhibitors of E. coli YBA685 in a screen for V. cholerae RctB (chromosome II replication) inhibitors; E. coli YBA685 rctB-dependent plasmid, OD600 growth, 3 h; stronger effect = lower value; z-score (concentration not given with the values); 130,000 tested, 0.27% active;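 active means z-score under -2 on both plates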;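 further: wells of about 30 µL received 100 nL stock; score is relative to mean and SD of the test wells; the first replicate is given; strong numbers were not always called active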
Ba CapD inh – inhibitors of Bacillus anthracis CapD enzyme. purified CapD enzyme, fluorescence intensity read-out; stronger effect = lower value; some hits fall short of the stated cut. z-score (concentration not given with the values). 140,000 tested, 0.23% active;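 active means z-score under -4 in either of two replicates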;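 further: stock transfer was 100 nL into about 40 µL; score is relative to mean and spread of the plate; one replicate is shown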
* = called active by the depositor; . = no result given.

mol | AID504770 | Ba CapD inh
N#Cc1c(N)nc(SCc2ccccc2)c(C#N)c1C1CCCCC1 | 0.45 | .
O=C(c1ccc(CS(=O)(=O)c2ccccc2)o1)N1CCN(c2ccccc2)CC1 | 1.45 | -0.355
CC1CN(C(=O)COc2ncnc3c2cnn3-c2ccccc2)CC(C)O1 (centres undefined) | 0.15 | .
FC(F)(F)c1cccc(NCc2cn3ccccc3n2)c1 | -0.3 | 2.17
O=C(CCc1nc2ccccc2c(=O)n1CCC(=O)N1CCN(c2ccccc2)CC1)N1CCCCCC1 | . | 0.055
CC1CS/C(=C(/C(=O)O)C(=O)/C=C/c2cccc(O)c2)S1 (centres undefined) | 0 | -5.43*
CCn1c(-c2nonc2NC(C)=O)n[nH]c1=S | 0.7 | -2.63
Cc1cc(C=C2C(=O)OC(C)(C(C)(C)C)OC2=O)c(C)n1-c1ccccc1 (centres undefined) | -0.5 | -2.61
COc1ccc2c(c1)c(CC(=O)OCc1ccccn1)c(C)n2C(=O)c1ccc(Cl)cc1 | 1.5 | 2.42
Cc1cc(NC(=O)c2ccc3c(Cl)c4c(nc3c2)CCCC4)no1 | 0.45 | -0.575
Fc1ccc(COc2cn(-c3ccccc3)nn2)cc1 | 2.6 | .
COc1cccc(-n2cc(C(=O)N3C(C)CCCC3C)c3ccccc3c2=O)c1 (centres undefined) | -0.65 | 3.54
N#Cc1cc(-c2ccncn2)c(-c2ccc(C(F)(F)F)cc2)[nH]c1=O | . | -0.615
Nc1ccc(S(=O)(=O)NCc2ccncc2)cc1 | 0.2 | .
CC(C)NC(=O)c1ccc2c(=O)n(Cc3ccco3)c(=S)[nH]c2c1 | -0.8 | -5.07*
Cc1ccc(CCNC(=O)Cn2ncn3c(cc4sccc43)c2=O)cc1 | -1.75 | -0.345
O=C(O)CN1C(=O)c2cccc3c(Cl)cc(Cl)c1c23 | 0.2 | -0.655
COc1ccc(C2CC(c3ccccc3)=NN2C(=O)CSc2nc(N)c(C#N)cc2C#N)cc1 (centres undefined) | -0.35 | .
CCOc1cc(C(=O)Nc2ccc(C(=O)Nc3cccc(-c4nc5ccccc5o4)c3)cc2)cc(OCC)c1OCC | . | -0.75
CCOC(CNC(=O)c1cccc(S(C)(=O)=O)c1)(OCC)c1ccncc1 | . | 0.065
NS(=O)(=O)c1ccc(CCNC(=O)c2c(-n3cccc3)sc3c2CCCC3)cc1 | -1.25 | .
CCOC(=O)Cc1csc(CC(N)=O)n1 | 0.8 | -0.03
CC12CCC(C(=O)N3CCCCCC3)(OC1=O)C2(C)C (centres undefined) | . | -0.12
CC1=C(C#N)S(=O)(=O)C(C#N)C(c2ccccc2)C1 (centres undefined) | . | 1.01
Cc1nn(-c2ccccc2)c(OC(=O)c2ccc(Br)o2)c1Sc1ccccc1 | 0 | 0.095
Nc1ccc(CCC(=O)N2CCCC2)cc1 | -0.15 | .
Clc1c(-c2nnco2)sc2ccccc12 | -1.15 | 0.18
O=C(O)c1cccc(-c2nc3ccccc3[nH]2)c1 | 1.7 | 15.8
COc1cccc2c(=O)c(C(=O)NCc3cccs3)c[nH]c12 | 0.1 | .
COc1ccc(C2Oc3ccc(Cl)cc3C3CC(c4cccs4)=NN32)c(OC)c1OC (centres undefined) | . | 0.45
Cc1cc(/C=N/NC(=O)Cc2ccsc2)c(C)n1-c1cccc(C(F)(F)F)c1 | . | -0.61
O=C(CSc1nnc2sc3ccccc3n12)N1CCCC1 | -0.8 | 0
CCSc1ncccc1C(N)=O | . | 0.89
O=C(Nc1ccc(S(=O)(=O)N2CCCCC2)cc1)c1cc(=O)c2ccccc2o1 | -0.15 | 0.925
c1ccc2c(c1)nc1n2CCN1CCN1CCOCC1 | 1.1 | 0.34
CCOc1ccccc1NC(=O)N1CCCC(c2nnc(SC)n2C)C1 (centres undefined) | 0 | .
FC(F)(F)c1ccc(-c2nc(-c3ccccn3)ncc2-c2ccncc2)cn1 | . | -0.3
COc1ccc(CCN2C(=O)CC(C(=O)Nc3ccc(OC)cc3)SC2=Nc2ccccc2)cc1 (centres undefined) | . | -0.435
O=C(Cc1ccccn1)NCCO | 2 | .
CCOC(=O)c1c(-c2ccc(Br)cc2)csc1/N=C/C1C(=O)NC(=S)NC1=O | 0 | -0.625
O=C(Nc1ccc(S(=O)(=O)N2CCCC2)cc1)c1cccs1 | 0 | -0.71
CC(C)c1c(CN(C)C(C)Cc2ccccc2)n(C)n(-c2ccccc2)c1=O (centres undefined) | . | -0.605
Cc1cc2nc(C)c(C)nc2cc1C | . | 2.12
COC(=O)C1C(=O)NC(SCC(=O)Nc2ccc(C)c(Cl)c2)=C(C#N)C1c1cc(OC)c(OC)c(OC)c1 (centres undefined) | . | -0.125
C=CCOC(=O)C1CC=CCC1C(=O)Nc1ccc(NC(C)=O)cc1 (centres undefined) | -0.2 | 0.13
NC(=O)C1(C(N)=O)Sc2sc(=S)sc2S1 | . | 0.02
COCc1nc2ccccc2c2c1C(=O)N(NC(=O)C(=O)N1CCCc3ccccc31)C2=O | . | -1.12
O=C1/C(=C\c2ccco2)N2CCC1CC2 | 1.05 | -2.33
O=C(/C=C/c1cccs1)Nc1ccccc1 | -1.35 | -2.14
COc1ccccc1N=c1oc2ccc(Br)cc2cc1-c1nc(-c2ccc(Cl)cc2)cs1 | . | 0.28

Later entries:
mol | AID504770 | Ba CapD inh
Cc1ccccc1Nc1nc(N)nc(CN(C)S(=O)(=O)c2cccs2)n1 | -0.9 | .
CSc1nc(NC(=O)C(C)C)c(C#N)n1Cc1ccco1 | -0.45 | -0.415
Cc1nc(-c2c(C(=O)NNC(=O)OCCOCCN3CCN(C(c4ccccc4)c4ccc(Cl)cc4)CC3)noc2C)cs1 (centres undefined) | . | -0.395
N#CC1C(N)=Nn2c(nnc2C(F)(F)F)SC12C(=O)Nc1ccccc12 (centres undefined) | 0.95 | -0.95
O=C(NC(=O)C12CC3CC(CC(C3)C1)C2)Nc1ccc(Cl)cc1 | 0.5 | -0.005
CC(C)Cn1c(CNC(=O)Cc2ccccc2)nc2ccccc21 | 0.1 | 1.02
COc1ccc(CCNc2ncnc3c2cnn3-c2ccc(Cl)cc2)cc1OC | . | -0.345
O=C(CCc1nnc2n(Cc3ccccc3)c(=O)c3ccccc3n12)NCCCN1CCCCC1 | 1.65 | -0.59
OC1(C(F)(F)F)CSC(Cc2ccccc2)=N1 (centres undefined) | 1.2 | -0.76
O=C(CSc1ccccn1)Nc1ccc2ccccc2c1 | -0.15 | 0.4
CC(=Nc1c2c(nc3ccccc13)N(C)CC2)N(C)C | -0.45 | -0.22
COc1ccc(C(=O)CSc2n[nH]c(=O)[nH]c2=O)cc1 | -0.85 | .
COc1ccc(CC(=O)NC(C)C(c2cccs2)N2CCOCC2)cc1 (centres undefined) | -0.3 | 0.46
CCCn1c2ccccc2c2cnn(CC(=O)N(CC)CC)c(=O)c21 | 0.25 | 74.4
O=C(O)C(Cc1ccccc1)NS(=O)(=O)/C=C/c1ccccc1 (centres undefined) | -0.6 | 0.275
COC(=O)c1cc(OC)c(OC)cc1NC(=O)CN1CCNCC1 | . | 6.73
CCOC(Cc1nnc(SCC(=O)c2ccccc2)n1C)OCC | 1.15 | 0.02
COC(=O)c1ccc(NC(=O)C2CC(=O)N(Cc3ccc4c(c3)OCO4)C(=Nc3ccccc3)S2)cc1 (centres undefined) | . | 0.175
CCOC(=O)C1=C(C)NC(=O)NC1c1cn(-c2ccccc2)nc1-c1cccs1 (centres undefined) | . | 0.47
CCOc1ccc(N(CC(=O)Nc2ccc(OC)cc2OC)S(=O)(=O)c2ccc(Cl)cc2)cc1 | . | -0.565
CCC1C(=O)N=C(SCC(=O)Nc2nc(-c3ccccc3)cs2)NC1=O (centres undefined) | . | -0.66
Cc1nc(C2CC2)[nH]c(=O)c1Cl | 0.1 | 0.535
COc1ccccc1C(=O)c1cc2c(cc1Br)OCCO2 | . | -0.115
CCCn1c(=O)n(C)c(=O)c2c(SCC3CCCCO3)nc(CC(C)C)nc21 (centres undefined) | 0.65 | .
O=C(NC1CCN(Cc2ccccc2)CC1)c1cc2cc(Cl)ccc2[nH]1 | 0.3 | 0.205

Continued.
Order of values – AID504770 | Ba CapD inh
> Cc1cc(NC(=O)CN2C(=O)CC(c3ccccc3)Sc3ccccc32)no1 (centres undefined)
 : -0.5 | -0.165
> COc1cccc(C(=O)N/N=C/c2ccc(OC(=O)OC(C)(C)C)c(OC)c2)c1
 : . | -1.18
> COCCn1c(=NC(=O)c2ccccc2)sc2cc(S(C)(=O)=O)ccc21
 : -0.15 | 0.65
> COC(=O)C(C)Sc1nnc(-c2ccc(OC)cc2)n1-c1ccccc1 (centres undefined)
 : 1.6 | .
> N#Cc1ccccc1COc1ncnc2c1cnn2-c1ccccc1
 : 0.05 | .
> Cc1ccc2c(c1)C1CN(C)CCC1N2 (centres undefined)
 : 0.4 | .
> C=CCc1cccc2cc(C(N)=O)c(=O)oc12
 : 0.9 | 5.42
> O=C1Cc2ccccc2C(=O)N1Cc1ccccc1
 : 0.4 | -0.465
> Cc1cccc(CC(CC(=O)O)C(=O)N2CCN(C/C=C/c3ccccc3)CC2)c1 (centres undefined)
 : . | -0.545
> CC1(c2cccs2)CC(c2cccs2)=Nc2ccccc2N1 (centres undefined)
 : -1.1 | 1.58
> CCC(NC(=O)c1ccc(C#CC2(O)CCCCC2)cc1)C(=O)O (centres undefined)
 : 2.25 | 0.11
> CC(=O)Oc1ccc2occ(C(=O)c3cc4ccccc4o3)c2c1
 : -0.35 | -0.625
> O=C(O)c1cc2cc(OCc3ccccc3)ccc2[nH]1
 : . | 37.9
> FC(F)(F)c1cccc(-c2noc(-c3ccccc3)n2)c1
 : 0.2 | 0.37
> Cc1ccc2c(CN(Cc3cccs3)C(C)C)cc(=O)oc2c1
 : 0.1 | 0.37
> Cc1nn(Cc2nnn(CC(=O)NNC(=O)c3ccsc3)n2)c(C)c1Br
 : . | -0.81
> Cc1nn(CC(=O)O)c(C)c1C
 : -0.25 | .
> CC(C#N)Sc1nnc(-c2nn(Cc3ccccc3)c(=O)c3ccccc23)o1 (centres undefined)
 : -0.1 | .
> CC(C)N1C(=O)C2C3C=CC(O3)C2C1=O (centres undefined)
 : -0.65 | -0.06
> CCCc1ccc(-c2c3c(c(-c4ccccc4)n2-c2cccc4ccccc24)C(=O)c2ccccc2C3=O)cc1
 : . | 28.9
> Cc1cc(CNCc2ccc(CN3CCOCC3)cc2)c(C)n1-c1ccnn1C(C)C
 : 0.8 | .
> NS(=O)(=O)c1ccc(C(=O)N/N=C/c2cc(F)c(F)cc2F)cc1
 : . | 4.16
> c1cc2c3c(cccc3c1)NC(c1ccncc1)N2
 : 1.4 | 0.415
> CCOc1ccc(N2C(=O)C(=O)C3=C(c4ccccc4)Nc4ccccc4SC32C(=O)OC)cc1 (centres undefined)
 : . | -0.075
> COc1ccc(CNCCC2(Cc3ccccc3)CC(C)N(C)CC2C)cc1OC (centres undefined)
 : -0.8 | 0.745
> C=CCSc1nnc(-c2cc3c(-c4ccccc4)nn(C)c3s2)n1C
 : . | 60.3
> Cc1ccccc1C(=O)N/N=C/C12CC[C@@H](O)CC1(O)CC[C@@H]1[C@@H]2CCC2(C)C(C3=CC(=O)OC3)CCC12O (some centres undefined)
 : . | -0.29
> CS/C(=N\S(=O)(=O)c1cc(C(F)(F)F)cc(C(F)(F)F)c1)N1CCOCC1
 : -0.45 | -0.09
> Cc1cc(/C=C2\C(=O)NC(=O)N(c3ccc(Br)cc3)C2=O)c(C)n1-c1cc(C(=O)O)cc(C(=O)O)c1
 : . | -0.935
> CSc1ncccc1C(=O)NCc1ccccc1C(F)(F)F
 : 0.5 | 0.845

Full records, quoted from the list. Screens in order: AID504770	Ba CapD inh
`COc1ccc(CNCCC2(Cc3ccccc3)CC(C)N(C)CC2C)cc1OC` (centres undefined) across the screens: -0.8	0.745
`CCOc1ccc(N2C(=O)C(=O)C3=C(c4ccccc4)Nc4ccccc4SC32C(=O)OC)cc1` (centres undefined) across the screens: .	-0.075
`c1cc2c3c(cccc3c1)NC(c1ccncc1)N2` across the screens: 1.4	0.415

(more compounds)
Order of values – AID504770 | Ba CapD inh
> O=c1[nH]ccn(-c2cccc(Cl)c2)c1=O
 : -0.85 | .
> COc1ccc(C2C3=C(CCCC3=O)N(c3ccccc3)C(=N)/C2=C(/O)c2ccccc2)cc1 (centres undefined)
 : . | -0.255
> CN(C(=O)C1CCCN(c2ncnc3onc(-c4ccc(F)cc4)c23)C1)c1ccccc1 (centres undefined)
 : 0.1 | 3.58
> COc1ccccc1C(=O)Nc1nnc(-c2ccccc2)o1
 : 0.1 | -0.075
> Cc1c(Cl)cccc1-n1ncnc1-c1ccc(F)cc1
 : 0.9 | -0.025
> Cc1cc(C)c(S(=O)(=O)NCc2ccc(C(=O)NCCc3ccc(Cl)cc3)cc2)c(C)c1
 : 1.3 | 0.02
> COc1ccc(-c2cn3cc(Cl)ccc3n2)cc1F
 : . | 6.45
> CC1CCN(Cc2c(C(=O)O)nnn2-c2nonc2N)CC1
 : . | -0.16
> CSc1nc2ccccc2n1CC(=O)N(C)C1CCCCC1
 : 0.4 | 0.8
> Cc1cccc(Cl)c1-n1sc(=O)n(CC2CC2)c1=O
 : -1.55 | -0.195
> COc1cc([N+](=O)[O-])c(OC)cc1SCC(=O)NNC(=O)c1cccc([N+](=O)[O-])c1
 : . | -0.07

Seven structures out of the list, ordered by formula weight, falling.
Order of values – AID504770 | Ba CapD inh
> COc1ccc(C2C3=C(CCCC3=O)N(c3ccccc3)C(=N)/C2=C(/O)c2ccccc2)cc1 (centres undefined)
 : . | -0.255
> COc1cc([N+](=O)[O-])c(OC)cc1SCC(=O)NNC(=O)c1cccc([N+](=O)[O-])c1
 : . | -0.07
> CN(C(=O)C1CCCN(c2ncnc3onc(-c4ccc(F)cc4)c23)C1)c1ccccc1 (centres undefined)
 : 0.1 | 3.58
> Cc1cccc(Cl)c1-n1sc(=O)n(CC2CC2)c1=O
 : -1.55 | -0.195
> COc1ccccc1C(=O)Nc1nnc(-c2ccccc2)o1
 : 0.1 | -0.075
> COc1ccc(-c2cn3cc(Cl)ccc3n2)cc1F
 : . | 6.45
> O=c1[nH]ccn(-c2cccc(Cl)c2)c1=O
 : -0.85 | .

A portion of the library; count on the stated rates, not on these rows.
